# AID923: qHTS Assay for Allosteric/Competitive Inhibitors of Caspase-1: Spectroscopic Profiling in AFC Spectral Region. hit rate 1.1% among 75,000. compound fluorescence, AFC spectral region (405/520 nm); almost no hit is shown here. Potency, µM (highest dose often 57.5 µM), for inactives: at the highest dose fluorescence increase, actives largely listed as activators; active = well fitted activation curve with a large enough effect; inconclusive = small, poorly fitted or top-dose-only effect;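 also: potency is read from the fitted curve at half-maximal effect; 0% is about no effect; scaled to a free AFC standard on each plate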
#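 Titrations up to 57 uM read every 20 sec for 3 min (405/520 nm) with 50 nM caspase 1 and 5 uM Ac-WEHD-AFC, pH 7.5 HEPES buffer. Fluorescence-vs-time intercept gave baseline, scaled against on-plate AFC standard.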
# A488 fluor: A488 region autofluorescence; compound autofluorescence, A488 spectral region, dye equivalency; hits give high values; max dye equivalency, M; hit rate 0.1% among 59,000; active = above 10 nM dye equivalent; inconclusive = 1 to 10 nM; inactive = 1 nM or less; about half of its hits are not listed in these tables;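 also: highest value over a series up to 38 µM; compound alone in buffer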
#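 Compounds pin-transferred into 100 mM Tris buffer, pH 8.0, incubated 15 min at room temperature, then imaged with 480 nm excitation/540 nm emission filters. Fluorescence converted to Alexa 488 dye-equivalent concentration via an on-plate six-point A488 standard curve.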
# Resorufin autofl: resorufin region autofluorescence | Compound fluorescence, resorufin region 547/598 nm, buffer; hits give high values | max dye-equivalent concentration, M | hit rate 0.04% among 59,000; active = above 10 nM dye equivalent; inconclusive = 1 to 10 nM; inactive = 1 nM or less; a few of its hits are not listed in these tables; also: highest value over a series up to 38 µM
#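 Compounds in 100 mM Tris, pH 8.0, incubated 15 min at room temperature, then fluorescence read at 547 nm excitation/598 nm emission. Signal converted to dye-equivalent concentration via an on-plate six-point resorufin standard curve, per compound concentration.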
# TSHR ag: activates the human thyroid stimulating hormone receptor. P16473. HEK293-CNG-TSHR cells (CNG channel as cAMP sensor), membrane potential dye, cAMP. Potency, µM (top dose mostly 57.1 µM), for inactives: at the top dose activation, usual class: activators. hit rate 0.48% among 73,000. AID 926; active = well fitted activation curve of enough size with the parental cells flat; inconclusive = any curve in the parental cells; inactive = parental cells flat and receptor cells flat or falling; also: potency is read from the fitted curve at half-maximal effect; % of control where 0% means no effect; weak receptor curves with flat parental cells got no call and are not listed
# Target sequence (P16473 whole entry, looked up): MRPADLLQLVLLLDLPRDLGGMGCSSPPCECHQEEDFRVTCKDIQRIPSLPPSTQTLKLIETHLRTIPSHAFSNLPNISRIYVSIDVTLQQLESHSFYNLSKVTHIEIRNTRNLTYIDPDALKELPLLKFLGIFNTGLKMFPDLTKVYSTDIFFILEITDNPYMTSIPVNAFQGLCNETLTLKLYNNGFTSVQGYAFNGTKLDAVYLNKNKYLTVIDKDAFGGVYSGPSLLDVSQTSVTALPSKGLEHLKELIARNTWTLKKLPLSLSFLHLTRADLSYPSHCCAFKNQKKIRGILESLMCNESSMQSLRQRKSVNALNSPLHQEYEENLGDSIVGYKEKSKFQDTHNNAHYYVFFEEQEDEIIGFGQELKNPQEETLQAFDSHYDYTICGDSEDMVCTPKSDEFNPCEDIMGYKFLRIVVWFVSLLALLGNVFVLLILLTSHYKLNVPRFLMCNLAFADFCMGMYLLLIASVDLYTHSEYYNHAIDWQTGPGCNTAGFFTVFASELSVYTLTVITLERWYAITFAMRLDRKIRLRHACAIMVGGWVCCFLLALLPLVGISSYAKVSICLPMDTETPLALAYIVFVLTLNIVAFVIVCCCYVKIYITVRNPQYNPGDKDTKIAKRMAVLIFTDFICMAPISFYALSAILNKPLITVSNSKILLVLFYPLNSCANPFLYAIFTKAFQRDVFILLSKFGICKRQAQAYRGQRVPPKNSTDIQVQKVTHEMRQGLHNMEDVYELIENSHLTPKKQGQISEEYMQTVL
#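 HEK 293 cells stably expressing TSHR and a modified CNG channel, with CNG-only parental cells as counterscreen, were preloaded 60 min at room temperature with membrane potential dye containing 100 uM RO 20-1724. Compound exposure was 30 min, and depolarization was read as fluorescence at 590 nm.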
# A647 fluor: compound autofluorescence in A647 spectral region; Compound fluorescence, A647 channel (570/671 nm), Tris buffer; max dye-equivalent concentration, M; 59,000 tested, under 10 active; AID 592; active means above 1 µM dye equivalent; inconclusive means 0.1 to 1 µM; inactive means 0.1 µM or less;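 also: values scaled relative to a standard on each plate; highest value over a series up to 38 µM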
#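 Fluorescence read (570 nm ex, 671 nm em) after 15 min RT incubation of compounds in 100 mM Tris buffer, pH 8.0; values expressed as dye-equivalent concentration against a six-point A647 standard series on each plate.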
# Active calls of the source: *; i = inactive; ? = inconclusive; . = no result given; [ ] = dose if it differs, or a comment. These rows are one share of the data. The share of hits here may be higher or lower than overall.
SMILES,AID923,A488 fluor,Resorufin autofl,TSHR ag,A647 fluor
Cc1cccc(NC(=O)c2cnc3ccccn3c2=O)c1,-3.5%,.,.,20%,.
CCCc1c(C)c2cccc(C)c2[nH]c1=O,0.0%,.,.,?,.
Cc1n[nH]c(=O)nc1NC1CCCCC1,0.5%,i,i,0%,1e-09
CN(C)S(=O)(=O)c1ccc(S(=O)(=O)Nc2ccc3c(c2)oc2ccccc23)cc1,0.0%,i,i,?,1.7e-08
CCOc1ccc(N(CC(=O)O)S(=O)(=O)c2cccnc2)cc1,-0.1%,.,.,8%,.
CC(C)c1nc(-c2ccccn2)no1,1.5%,i,i,-8%,1.3e-09
CC(C)Cn1c(SC(C)C(=O)Nc2ccc3c(c2)OCCO3)nc2ccccc2c1=O (stereo not given),0.4%,i,i,?,1e-09
O=C(NC1CCCC1)c1ccc(CS(=O)(=O)c2ccc(Br)cc2)o1,-0.8%,.,.,9%,.
c1ccc2c(c1)CCN(c1ncnc3c1[nH]c1ccccc13)C2,.,i,i,.,3.6e-08
CCc1ccccc1NC(=O)N1C2CCCC1CC(NC(=O)C(C)(C)C)C2 (stereo not given),2.7%,i,i,?,4.4e-08
Nc1nc(Cl)nc2c1ncn2[C@@H]1O[C@@H](CO)[C@@H](O)[C@H]1O,2.9%,i,i,?,5.8e-09
Oc1cnc2ccccc2c1CN1CCOCC1,4.3%,i,i,-4%,2.2e-08
N#Cc1cc2ccccc2nc1SCc1ccccn1,3.7%,i,i,?,1e-09
O=C(CSc1nnc(NC(=O)c2ccco2)s1)NC1CCCC1,-0.3%,i,i,-2%,2.2e-09
CCOC(=O)Cc1csc(/C(=N/O)C(N)=O)n1,-0.4%,i,i,1%,2.2e-08
c1ccc(CCn2nnnc2CN2CCN(C3CCCC3)CC2)cc1,0.2%,i,i,?,5.5e-08
CCOc1ccc(OCC)c(NC(=O)C2CCN(c3nn4c(=O)cc(C)nc4s3)CC2)c1,-0.3%,i,i,1%,2.6e-08
COc1ccc(-c2oc3ncn4nc(Cc5ccccc5)nc4c3c2-c2ccc(OC)cc2)cc1,.,i,i,.,1e-09
O=C(NCc1ccco1)c1ccc(NC(=O)C2COc3ccccc3O2)cc1 (stereo not given),-0.3%,i,i,-13%,3.5e-09
CC(=O)c1cccc(NC(=O)C2C3C=CC(C4CC34)C2C(=O)O)c1 (stereo not given),-0.7%,i,i,-4%,2.4e-08
CC1CCCN(Cc2nc3c(c(=O)n(C)c(=O)n3C)n2CCc2ccccc2)C1 (stereo not given),-0.3%,i,i,?,3e-08
COc1ccc(NC(=O)C2CCCCN2S(=O)(=O)c2ccc(F)cc2)c(OC)c1 (stereo not given),-2.2%,i,i,?,2.7e-08
COc1cc(CC(=O)OCC(=O)Nc2ncc(Cl)cc2Cl)cc(OC)c1OC,0.4%,i,i,4%,9.8e-09
COc1ccc(C)cc1N(CC(=O)NC1CCCC1)C(=O)CCC(=O)Nc1cc(C)on1,-0.6%,i,i,4%[11.4 µM],1e-09
CCCCc1ccc(NC(=O)C2CCN(S(C)(=O)=O)CC2)cc1,1.5%,i,i,-4%,2.1e-08

# Following part
SMILES,AID923,A488 fluor,Resorufin autofl,TSHR ag,A647 fluor
CCCCn1c(=O)n(CC(O)c2ccccc2)c(=O)c2c1ncn2C1CCCC1 (stereo not given),-1.5%,i,i,0%,1.2e-08
O=C(O)C1CC(=O)N(CCC23CC4CC(CC(C4)C2)C3)C(=Nc2ccccc2)S1 (stereo not given),3.5%,.,.,5%,.
COc1ccc(OC)c(NS(=O)(=O)c2ccc(Cl)s2)c1,-0.9%,i,i,24%,1e-09
O=C(CCOc1ccccc1)NCC(c1ccco1)N1CCCCC1 (stereo not given),-0.4%,i,i,4%,3.9e-08
Cc1c(C(=O)NCC2CCCO2)sc2nc(-c3ccc(F)cc3)cn12 (stereo not given),4.5%,.,.,?,.
O=C(Nc1nc(-c2cccs2)cs1)c1ccc(S(=O)(=O)N2CCCCC2)cc1,10%,.,.,8%,.
COc1cc(NC(=O)CSc2nc(C)cs2)cc(OC)c1,0.5%,i,i,1%,2.4e-08
O=C(CCS(=O)(=O)c1cccc2nonc12)N1CCN(c2ccc(F)cc2)CC1,0.6%,i,i,-12%,1e-09
O=C(CCCOc1ccccc1)Nc1ccncc1,-0.4%,i,i,?,2.7e-08
O=C(NCCc1ccncc1)C(F)(F)F,0.5%,.,.,6%,.
CCOC(=O)N1CCC(NC(=O)Cn2cccc2C(=O)c2ccccc2C)CC1,0.7%,i,i,8%[11.4 µM],9.7e-09
Cc1cc(C)c(S(=O)(=O)Nc2cccc(C(F)(F)F)c2)c(C)c1,-3.6%,.,.,13%,.
CCN(CC)CCn1nc(C)nc1-c1ccccc1O,0.3%,i,i,-1%,1e-09
CCn1c(SCC(=O)Nc2ccccc2C(=O)OC)nc2c1c(=O)n(C)c(=O)n2C,4.6%,.,.,?,.
C=CS(=O)(=O)c1ccc(Oc2ccc(S(=O)(=O)C=C)cc2)cc1,0.4%,i,i,?,2.4e-08
COc1ccc(/C=N/n2c(N)nc3ccccc32)cc1OC,-0.9%,i,i,10%,5.5e-09
CCN1CC2=C(OC(N)=C(C#N)C2c2ccccc2)/C(=C\c2ccccc2)C1 (stereo not given),.,i,i,.,1e-09
CCOC(=O)c1cccc(NC(=O)C(C)N2C(=O)c3ccccc3C2=O)c1 (stereo not given),0.8%,i,i,-4%,3.1e-08
Cn1c(SCc2ccon2)nc2ccccc2c1=O,-1.9%,i,i,23%,2.6e-08
O=C(Cn1c(NCCO)nc2ccccc21)NCCc1ccccc1,-0.1%,i,i,2%,4.1e-08
CC(=O)CSc1nc2ccc(Nc3nc(N4CCOCC4)nc(N4CCOCC4)n3)cc2s1,-1.9%,.,.,11%,.
COc1cc(CNc2ccc3c(c2)CCC3)cc(OC)c1O,-0.8%,.,.,-12%[11.4 µM],.
O=C(CCCc1nc2ccccc2s1)Nc1nccs1,-2.3%,i,i,5%,6.7e-09
c1ccc2c(NC3CCCC3)nnc(NC3CCCC3)c2c1,0.8%,i,i,-1%,5.4e-09
Cc1cc(NC(=O)c2cc(C3CC3)on2)no1,-2.7%,.,.,?,.

# Following part.
SMILES,AID923,A488 fluor,Resorufin autofl,TSHR ag,A647 fluor
COc1ccc(NC2=NCC(=O)N2c2ccccc2)c(OC)c1,2.9%,i,i,-2%,1.9e-08
O=C1CCC[C@@H](C2=CCCCC2=O)C1,-0.7%[11.5 µM],.,.,7%[11.4 µM],.
CCOc1cc(N2CCOCC2)c(OCC)cc1NC(=O)c1cc(-c2ccco2)nc2ccccc12,-1.3%,i,i,4%,1.3e-08
CCCC1CCC(c2nc(-c3cccnc3)no2)CC1 (stereo not given),0.4%,i,i,14%,1.2e-08
CCN(c1cccc(C)c1)S(=O)(=O)c1cccc2nsnc12,0.9%,i,i,12%,1.1e-08
COc1cc(Cl)c(C)cc1NC(=O)CSc1nnc(-c2ccco2)n1CC(C)C,-1.7%,i,i,25%,3.1e-08
CCCCCOC(=O)Cc1c(O)c2ccccc2n(C)c1=O,3.2%,i,i,3%,9.2e-09
COc1ccc(Cl)cc1NC(=O)COc1cccc(-n2cnnn2)c1,-1.0%,i,i,?,1e-09
COCCNC(=O)CSc1nc2ccccc2c(=O)n1-c1cccc(OC)c1,0.3%,i,i,16%,2.3e-08
CCOc1ccc2[nH]c(=O)c(CN(Cc3ccc(F)cc3)C(=O)N3CCCC3)cc2c1,3.4%,i,i,?,1e-09
CCS(=O)(=O)N1CCC(C(=O)N2CCc3ccccc3C2)CC1,2.3%,i,i,0%,1.3e-08
Cn1c(=O)n(CCc2ccccc2)c(=O)c2c1nc1n2CCCN1Cc1ccccc1,-0.8%,i,i,-15%,2.9e-08
Cc1cc(C)c(-c2cc(C(=O)Nc3c(C)n(C)n(-c4ccccc4)c3=O)[nH]n2)c(O)c1,-0.3%,i,i,.,1e-09
O=C(Cn1c(-c2cncs2)nc2ccccc21)NC1CCCC1,0.4%,i,i,?,1e-09
COc1ccc2[nH]cc(C(=O)CN3CCCC(C)C3)c2c1 (stereo not given),-1.3%,i,i,7%,2.1e-08
C[C@@H](c1ccccc1)N1C(=O)[C@@H]2[C@H]3C(=CC[C@H]2C1=O)C(=O)[C@H]1O[C@H]1[C@H]3O,6.2%[11.5 µM],.,.,4%[11.4 µM],.
COc1ccc(NC(=O)CCN2CCCC(C)C2)cc1 (stereo not given),-0.7%,i,i,7%,1e-09
CCC(C)NC(=O)C1CCC(=O)N(c2cc(OC)c(OC)c(OC)c2)C1c1ccc(OC)cc1 (stereo not given),0.6%,i,i,12%,1e-09
Cc1nnc(NC(=O)C2CCCN(c3ncccn3)C2)s1 (stereo not given),-0.4%,i,i,20%,4.9e-08
O=C(COc1cccc2ccccc12)N1CCN(c2ccccc2)CC1,0.4%,.,.,25%[11.4 µM],.
CC(=O)c1ccc(NC(=O)CSc2nnc(Cn3c(=O)sc4ccccc43)n2C)cc1,-1.3%,.,.,?,.
O=C(O)C1C2CCC(O2)C1C(=O)NCc1ccncc1 (stereo not given),-0.7%,i,i,-4%,1e-09
CCCn1cnc2cc(NCc3ccccn3)ccc21,-2.4%,.,.,1%,.
CC(=O)Nc1cccc(OCC(=O)Nc2ccc(F)cc2)c1,2.1%,i,i,-13%,1.6e-08
COc1ccc(NC(=O)CCNC(C)=O)cc1NS(=O)(=O)c1ccc(F)cc1,2.4%,i,i,0%,2.1e-09

# (more compounds)
SMILES,AID923,A488 fluor,Resorufin autofl,TSHR ag,A647 fluor
CCn1cc(C2N3CC4(C)CN2CC(C)(C3)C4=O)c2ccccc21 (stereo not given),0.4%,.,.,8%,.
C/C(CCN1CCc2nc(-c3ccccc3)c(-c3ccccc3)cc2C1)=N\O[C@@H](C)CN1CCCc2nc(C)c(C)cc21,2.3%[11.5 µM],.,.,7%[11.4 µM],.
C[C@]1(C2CCCC2)Cc2cc(OCC(=O)O)c(Cl)c(Cl)c2C1=O,-0.3%,i,i,.,1e-09
COC(=O)C(F)(Sc1c(C)n(C)n(-c2ccccc2)c1=O)C(F)(F)F (stereo not given),-1.1%,i,i,4%[11.4 µM],1e-09
CN=C1SC(CC(=O)NCCc2ccc(OC)c(OC)c2)C(=O)N1C (stereo not given),1.3%,i,i,-5%,1.2e-08
CC(C)(C)c1ccc(C(=O)C=[N+]=[N-])cc1,.,i,i,.,9.4e-08
CCOc1ccc(Nc2cc(C)nc(N3CCOCC3)n2)cc1,0.0%,i,i,3%,3.2e-08

# Molecules shown so far with fluorine:
SMILES,AID923,A488 fluor,Resorufin autofl,TSHR ag,A647 fluor
COc1ccc(NC(=O)C2CCCCN2S(=O)(=O)c2ccc(F)cc2)c(OC)c1 (stereo not given),-2.2%,i,i,?,2.7e-08
Cc1c(C(=O)NCC2CCCO2)sc2nc(-c3ccc(F)cc3)cn12 (stereo not given),4.5%,.,.,?,.
O=C(CCS(=O)(=O)c1cccc2nonc12)N1CCN(c2ccc(F)cc2)CC1,0.6%,i,i,-12%,1e-09
O=C(NCCc1ccncc1)C(F)(F)F,0.5%,.,.,6%,.
Cc1cc(C)c(S(=O)(=O)Nc2cccc(C(F)(F)F)c2)c(C)c1,-3.6%,.,.,13%,.
CCOc1ccc2[nH]c(=O)c(CN(Cc3ccc(F)cc3)C(=O)N3CCCC3)cc2c1,3.4%,i,i,?,1e-09
CC(=O)Nc1cccc(OCC(=O)Nc2ccc(F)cc2)c1,2.1%,i,i,-13%,1.6e-08
COc1ccc(NC(=O)CCNC(C)=O)cc1NS(=O)(=O)c1ccc(F)cc1,2.4%,i,i,0%,2.1e-09
COC(=O)C(F)(Sc1c(C)n(C)n(-c2ccccc2)c1=O)C(F)(F)F (stereo not given),-1.1%,i,i,4%[11.4 µM],1e-09

# Bioassay records from PubChem.
